PV pol inh = poliovirus RNA polymerase inhibition; P03300; poliovirus polymerase elongation, fluorescence polarization; hits give low values; % elongation, % (compound at 16.7 µg/mL); 150,000 compounds, 0.66% hits; in the data active = % elongation below about 90%; note: some results filed as inactive read as strong as hits
Target sequence (P03300 1749-2209 limits assumed): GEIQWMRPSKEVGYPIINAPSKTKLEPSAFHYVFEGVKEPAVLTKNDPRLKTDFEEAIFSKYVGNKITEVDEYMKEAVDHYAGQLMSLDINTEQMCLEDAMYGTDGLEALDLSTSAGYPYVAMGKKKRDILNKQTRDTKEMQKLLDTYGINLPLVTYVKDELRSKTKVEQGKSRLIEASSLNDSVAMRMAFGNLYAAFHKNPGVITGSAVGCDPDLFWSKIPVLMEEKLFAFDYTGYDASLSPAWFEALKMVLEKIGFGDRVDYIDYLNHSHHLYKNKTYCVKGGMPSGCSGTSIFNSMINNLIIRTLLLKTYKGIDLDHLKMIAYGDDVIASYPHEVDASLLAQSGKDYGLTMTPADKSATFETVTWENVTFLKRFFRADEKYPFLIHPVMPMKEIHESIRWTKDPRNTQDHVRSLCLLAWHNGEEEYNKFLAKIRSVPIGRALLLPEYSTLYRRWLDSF
PV pol inh intensity = second read-out of PV pol inh, no call of its own (marks repeat the call); % elongation; measured here: total intensity read-out; formula for this scale not given here;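 total fluorescence in place of polarization; lower means less elongation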
Numbers without * were called inactive. These rows are one share of the data; count on the stated rates, not on these rows.

SMILES	PV pol inh	PV pol inh intensity
Cc1ccc(S(=O)(=O)C(CNC(=O)C(=O)NCc2ccc(Cl)cc2)c2cccs2)cc1 (stereo not given)	106	111
Cc1cc(C)c2oc(-c3cccc(NC(=O)c4ccc(Br)o4)c3)nc2c1	103	104
COc1ccc(-c2cc(-c3ccc(F)cc3)nc3c2COc2ccccc2-3)cc1	106	110
COc1ccccc1CNC(=O)c1nnn(CC(=O)Nc2c(C)cccc2C)c1N	101	100
CCOc1ccc(S(=O)(=O)Nc2nc3ccccc3nc2Nc2ccc(OC)cc2)cc1	109	113
COc1ccc(OC)c(-c2csc(-c3c(N)c(C(=O)c4ccccc4)n4ccccc34)n2)c1	107	106
CCN(CC)C(=O)c1sc2c(c1C)c(=O)n(-c1ccccc1)c(=O)n2CC(=O)Nc1ccc(C)cc1C	100	99
Cc1ccc(S(=O)(=O)N(C)Cc2nc(-c3ccccc3)oc2C)cc1	110	103
COc1cccc(OC(=O)CSc2nnc(-c3ccc4c(c3)OCO4)o2)c1	87*	88*
CCCOc1ccccc1C(=O)Nc1nc2c(s1)CCCC2	108	97
COc1ccc(S(=O)(=O)NCC(c2ccco2)S(=O)(=O)c2ccc(C)cc2)cc1C (stereo not given)	105	112
COc1ccccc1-c1noc(CCCC(=O)NCc2ccco2)n1	105	102
O=S(=O)(c1ccc2nc(Nc3ccc(F)cc3)ccc2c1)N1CCCC1	112	112
Cc1cc(Cl)ccc1NC(=O)CS(=O)(=O)c1cccc2nsnc12	105	104
Cc1cc(F)ccc1NC(=O)c1csc2c1CCC(C)C2 (stereo not given)	102	104
FC(F)(F)c1cccc(N2CCN(Cc3nnc(-c4ccccc4)o3)CC2)c1	107	110
O=C(CC1N=C2c3ccccc3N=C(SCC(=O)Nc3ccccc3F)N2C1=O)NCc1cccs1 (stereo not given)	111	113
Cc1ccc(S(=O)(=O)c2cn(CC(=O)Nc3ccc4c(c3)OCO4)c3ccc(F)cc3c2=O)cc1	110	114
COc1ccc(N2CCN(C(=O)c3nn(C)c4c3CSc3ccccc3-4)CC2)cc1	111	117
CCCn1c(=O)c2sccc2n2c(CCCC(=O)Nc3ccccc3OCC)nnc12	109	110
Cc1noc(C)c1S(=O)(=O)NCCc1csc2nc(-c3ccc(F)cc3)nn12	104	110
Cc1ccc(CNC(=O)CCSCc2cnn(-c3ccccc3)c2-n2cccc2)cc1	111	117
COc1ccc(-c2cc3nc(C)c(CCC(=O)N4CCN(c5ccc(F)cc5)CC4)c(C)n3n2)c(OC)c1	112	110
COc1ccc(-c2cc3nc(C)c(CCC(=O)NCc4ccccc4Cl)c(C)n3n2)c(OC)c1	110	106
O=S(=O)(Nc1ccc2nc(-c3ccc(F)cc3)oc2c1)c1ccccc1	110	114
O=C(CSc1ccc2nnc(CCNS(=O)(=O)c3ccccc3)n2n1)Nc1ccccc1C(F)(F)F	102	98
Cc1cc(C)cc(OCCSc2nc3ccc(NC(=O)c4cccs4)cc3s2)c1	105	109
Cc1ccc2nc3sc(C(=O)NCCCN(C)c4ccccc4)cc3cc2c1	100	103
Cc1ccc(S(=O)(=O)NCCc2cn3ccsc3n2)c(C)c1	116	115
CCOc1ccc(CCNc2ncnc3onc(-c4ccc(Cl)cc4)c23)cc1	113	104
CCOc1ccc(CCNC(=O)CCN2N=C(c3ccc(OC)cc3)CCC2=O)cc1OCC	104	105
O=C(NCCc1ccc(Cl)cc1)c1nnc(Cc2ccc(F)cc2)o1	100	101
O=C(CSc1ccc(-c2cccs2)nn1)Nc1ccccc1C(F)(F)F	105	112
COC(=O)c1c(NC(=O)/C=C/c2ccc(OC)cc2)sc2c1CCC2	113	117
O=C1CCCc2cc(S(=O)(=O)NCC3CCC(C(=O)NCc4ccc(F)cc4)CC3)ccc2N1 (stereo not given)	100	104
CN(C)S(=O)(=O)n1cc(/C=C(\NC(=O)c2ccccc2Cl)C(=O)NCCCn2ccnc2)c2ccccc21	110	111
Cc1ccc(NC(=O)C2CC(=O)N(c3ccc(OC(C)C)cc3)C2)cc1 (stereo not given)	105	109
O=S(=O)(NCc1ccc(F)cc1)c1ccc(-c2cnc(C3CC3)o2)cc1	107	109
Cc1ccc(NC(=O)C2CCN(S(=O)(=O)c3cccc4nsnc34)CC2)cc1F	111	109
Cc1cc(C)cc(OC(C)C(=O)Nc2nonc2-c2ccc(Br)cc2)c1 (stereo not given)	107	105
COc1cc2c(cc1OC)C(COc1cc(C)cc(C)c1)N(C(=O)c1ccc(S(=O)(=O)N3CCCC3)cc1)CC2 (stereo not given)	112	114
CN1CCN(CCNC(=O)c2cnn(-c3cccc(Cl)c3)c2C2CCN(C(=O)OC(C)(C)C)CC2)CC1	98	104
CCOc1ccc(-c2cn3c(n2)sc2cc(C(=O)NC4CCCc5ccccc54)ccc23)cc1 (stereo not given)	110	110
Cc1cccc(NC(=O)C2CCCN(S(=O)(=O)c3cccc4nonc34)C2)c1C (stereo not given)	105	101
N#Cc1c(C(F)(F)F)cc(-c2cccs2)nc1SCC(=O)Nc1cccc(Cl)c1	113	127
COC(=O)c1ccc(NC(=O)CC2C(=O)N(c3cccc(OC)c3)C(=O)N2Cc2cccs2)cc1 (stereo not given)	113	112
CC(=O)c1c(C)n(-c2cccc(Cl)c2)c2ccc(OC(=O)c3ccccc3)cc12	101	104
COC(=O)c1ccc(NC(=O)C(=O)NCCc2csc(-c3ccc(F)cc3)n2)cc1	100	99
COc1ccc(/C=C/c2nc(C#N)c(NCc3ccc(F)cc3)o2)cc1OC	104	101
CCCCOc1ccccc1C1CC(=O)Nc2cc(OC)c(OC)cc21 (stereo not given)	104	107
CC(=O)N1CCc2cc(Br)cc(S(=O)(=O)N3CCC(C(=O)Nc4cccc(C)c4C)CC3)c21	110	113
Cc1ccc(S(=O)(=O)C(CNC(=O)COc2ccc(Cl)cc2)c2ccco2)cc1 (stereo not given)	104	99
CCC1CCCCN1Cc1c(O)ccc2c(=O)c(Oc3ccccc3Cl)c(C(F)(F)F)oc12 (stereo not given)	107	111
CCOc1ccc(CCNC(=O)CS(=O)(=O)Cc2nc(-c3cccc(Cl)c3)oc2C)cc1	101	101
CCOc1ccccc1CNC(=O)Cc1ccc(NC(=O)N2CCCCc3ccccc32)cc1	110	101
CCOc1ccccc1Nc1sc(C(=O)c2ccc(Cl)cc2)c(N)c1C#N	108	110
CCOc1ccc(CN2C(=O)c3ccccc3Sc3ccc(C(=O)NC4CCC(C)CC4)cc32)cc1 (stereo not given)	104	106
CC(C)(C)NC(=O)c1cnn2c(C(F)F)cc(-c3ccccc3)nc12	108	102
O=C(COc1ccccc1Cl)N(Cc1ccco1)Cc1ccco1	109	112
Cc1cccc(CCNC(=O)CCc2c(C)nc3c(-c4ccc(F)cc4)c(C)nn3c2C)c1	108	108
The list goes on:
SMILES	PV pol inh	PV pol inh intensity
Cc1cccc(-n2ncc(C(=O)Nc3ccc4c(c3)OCO4)c2C2CCN(C(=O)OC(C)(C)C)CC2)c1	104	105
CCOC(=O)c1ccc(N2C(=O)c3n[nH]c(-c4cccs4)c3C2c2ccc(CC)cc2)cc1 (stereo not given)	106	102
COc1cccc(/C=C/c2nc(C#N)c(N3CCC(C(N)=O)CC3)o2)c1	113	112
O=C(Nc1c(C(=O)Nc2cccc(C(F)(F)F)c2)oc2ccccc12)c1cc(=O)c2ccccc2o1	112	117
CCc1cccc(-n2c(=O)c3cccnc3n2CC(=O)Nc2c(C)cc(C)cc2C)c1	111	112
CCC(=O)N1CCc2cc(Br)cc(S(=O)(=O)CCC(=O)NCCc3ccccc3Cl)c21	104	107
CC(C)CCSc1nnc2n(-c3ccccc3)c(=O)c3c4c(sc3n12)CC(C)CC4 (stereo not given)	104	108
Cc1cc(=O)n2nc(N3CCC(C(=O)NCCCOC(C)C)CC3)sc2n1	107	111
Cn1nc(C(=O)NCc2ccccc2Cl)c2c1-c1ccccc1S(=O)(=O)C2	101	93
COC(=O)c1ccccc1NC(=O)NCc1ccc2c(c1)CCN2C(=O)c1ccccc1	108	103
COCCn1c(SCC(=O)Nc2cccc(C)c2C)nc2c(oc3ccccc32)c1=O	107	104
CCOC(=O)Cn1nc(C)c(NC(=O)COc2ccccc2)c1C	104	102
Cc1nc(C)c(-c2ccc(SCC(=O)Nc3ccc(Cl)c(Cl)c3)nn2)s1	110	117
O=C(NCC1CCCO1)c1c[nH]c2ccc(S(=O)(=O)Nc3cccc(C(F)(F)F)c3)cc2c1=O (stereo not given)	100	102
CCNC(=O)Cc1ccc(NC(=O)N2CCCCc3ccccc32)cc1	112	112
CCc1ccc(S(=O)(=O)c2nnn3c2nc(NC2CCCCCC2)c2sccc23)cc1	106	106
COc1ccc(C)cc1NC(=O)N1CCN(S(=O)(=O)c2ccc3c(ccn3C)c2)CC1	105	108
CCCCOc1c(Cl)cc(C(=O)N(Cc2ccc(C)o2)C2CCS(=O)(=O)C2)cc1Cl (stereo not given)	113	110
COc1ccc(Cn2c(SCc3ccc(C(=O)NCc4ccccc4F)cc3)nc3cccnc32)cc1	113	113
CCN(Cc1ccccc1)C(=O)Cn1c(=O)oc2cc(S(=O)(=O)N3CCCCCC3)ccc21	109	101
CCc1cccc(NC(=O)CN2CCCN(Cc3cccc(C)c3)S2(=O)=O)c1	105	106
COc1ccc(CCNC(=O)c2cc3c(=O)n4ccccc4nc3n2C)cc1	110	104
CCc1ccc(-n2nc(CO)c(C(=O)NCc3cccs3)n2)cc1	114	115
Cn1c(=O)c2sccc2n2c(CCC(=O)N3CCN(c4ccccc4)CC3)nnc12	102	104
CSc1ncc(Cl)c(C(=O)Nc2c(C(=O)c3ccc(C)c(F)c3)oc3ccccc23)n1	119	118
Cc1ccc(S(=O)(=O)N(CC(=O)Nc2ccc(F)cc2F)Cc2ccc(F)cc2)cc1	104	106
CCOc1ccc(NC(=O)Cn2cnc3c(oc4ccccc43)c2=O)cc1	98	100
Cc1cc(C)c(Nc2nc3ccccc3n3c(C)nnc23)c(C)c1	108	108
COc1ccc(-n2c(=O)[nH]c3cc(C(=O)NCCc4ccc(Cl)cc4)ccc3c2=O)cc1OC	109	113
CCc1ccc(-n2nc(C)c3c(C)cc(=O)n(CC(=O)Nc4ccc(F)cc4C)c32)cc1	104	105
CCCCOc1ccccc1NC(=O)CC1Sc2ccccc2NC1=O (stereo not given)	108	102
O=c1oc2c3c(ccc2c2ccccc12)OCN(Cc1ccc(Cl)cc1)C3	88*	93*
CCN1CCN(CCCNC(=O)c2cc3c(=O)n(C)c4ccccc4c3s2)CC1	74*	85*
CCc1ccc(NC(=O)c2ccc(F)c(S(=O)(=O)NCc3ccc(Cl)c(Cl)c3)c2)cc1	106	100
CCc1ccccc1NC(=O)Cn1c(=O)n(CC2CCC(C(=O)NCCc3ccccc3)CC2)c(=O)c2ccccc21 (stereo not given)	107	105
CCOCCCNC(=O)C(c1ccc(OC)cc1)N(Cc1ccc2c(c1)OCO2)C(=O)c1ccccc1O (stereo not given)	100	100
O=C1CC(c2ccccc2)Sc2ccccc2N1Cc1ccc(F)cc1 (stereo not given)	107	116
Cc1ccc(CN2CCCn3nc(C(=O)NCCc4cccc(C)c4)cc3C2=O)cc1	105	111
COc1ccc(Cn2cc(C(=O)c3ccc(OC)cc3)c(=O)c3cc4c(cc32)OCCO4)cc1	112	110
Cc1nn2c(-c3ccccc3)cc(-c3ccccc3)nc2c1-c1ccc(Cl)cc1	112	118
Cc1ccc(NCc2cc3cc4c(cc3n(CC(=O)Nc3ccc(F)cc3F)c2=O)OCCO4)cc1	102	105
Cc1cccc(N2CCN(C(=O)COCc3cc(-c4ccc5c(c4)OCO5)on3)CC2)c1C	109	111
Cc1cc(C)cc(NS(=O)(=O)c2ccc3c(c2)OCC(C(=O)N2CCCC2)O3)c1 (stereo not given)	107	104
Cc1ccc(-c2nc3ncccn3c2Nc2ccc3c(c2)OCCO3)cc1	112	111
COc1cc2c(=O)n(CCC(=O)NCC3CCCO3)c(=O)n(CC(=O)Nc3ccccc3C)c2cc1OC (stereo not given)	103	104
COc1ccc(-c2noc(CSc3nnc(-c4ccncc4)n3-c3ccc(C)cc3)n2)cc1OC	107	106
COc1ccc(-c2nc3sc(CCNC(=O)C(=O)Nc4c(C)cccc4C)c(C)n3n2)cc1	112	112
O=C(CN1C(=O)COc2ccc(S(=O)(=O)N3CCOCC3)cc21)N1CCN(c2cccc(Cl)c2)CC1	102	105
CCCN1CCN(CCCNC(=O)c2ccc3nc(Cc4ccccc4)oc3c2)CC1	103	111

Profiles, looked up by structure.
CCCN1CCN(CCCNC(=O)c2ccc3nc(Cc4ccccc4)oc3c2)CC1 reads PV pol inh: 103; PV pol inh intensity: 111
COc1ccc(-c2nc3sc(CCNC(=O)C(=O)Nc4c(C)cccc4C)c(C)n3n2)cc1 reads PV pol inh: 112; PV pol inh intensity: 112

In the list so far, these have an aryl thioether with sulfur outside any ring.
SMILES	PV pol inh	PV pol inh intensity
COc1cccc(OC(=O)CSc2nnc(-c3ccc4c(c3)OCO4)o2)c1	87*	88*
O=C(CSc1ccc2nnc(CCNS(=O)(=O)c3ccccc3)n2n1)Nc1ccccc1C(F)(F)F	102	98
Cc1cc(C)cc(OCCSc2nc3ccc(NC(=O)c4cccs4)cc3s2)c1	105	109
O=C(CSc1ccc(-c2cccs2)nn1)Nc1ccccc1C(F)(F)F	105	112
N#Cc1c(C(F)(F)F)cc(-c2cccs2)nc1SCC(=O)Nc1cccc(Cl)c1	113	127
CC(C)CCSc1nnc2n(-c3ccccc3)c(=O)c3c4c(sc3n12)CC(C)CC4 (stereo not given)	104	108
COCCn1c(SCC(=O)Nc2cccc(C)c2C)nc2c(oc3ccccc32)c1=O	107	104
Cc1nc(C)c(-c2ccc(SCC(=O)Nc3ccc(Cl)c(Cl)c3)nn2)s1	110	117
COc1ccc(Cn2c(SCc3ccc(C(=O)NCc4ccccc4F)cc3)nc3cccnc32)cc1	113	113
CSc1ncc(Cl)c(C(=O)Nc2c(C(=O)c3ccc(C)c(F)c3)oc3ccccc23)n1	119	118
COc1ccc(-c2noc(CSc3nnc(-c4ccncc4)n3-c3ccc(C)cc3)n2)cc1OC	107	106

Compound activity: PubChem BioAssay, ICCB-Longwood Screening Facility, Harvard Medical School
